Compound activity (PubChem BioAssay)
Bead autofluor – compound fluorescence in toxin protease inhibitor counterscreen; AID 624483; hit rate 3.1% among 360,000; fluorescence intensity (test concentration not listed); compound autofluorescence counterscreen, microsphere flow cytometry; hits give high values;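 active = at least 3 SD above the mean of all compounds, about 16000 in these data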;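 note: 100 nL of 1 mM stock went into each well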
Active calls of the source: *. A portion of the library (hit frequency here may not be typical).

mol	Bead autofluor
COCC(C)n1c(SCC(=O)NC2CCCCC2)nc2ccccc2c1=O (stereo unspecified)	3906
CCCOc1ccc(F)cc1-c1cc(C(=O)NCc2cc(OC)cc(OC)c2)[nH]n1	3912
CC1(C)CC(=O)C=C(c2n[nH]nc2C2CCCCC2)C1	3475
Cc1ccc2ccccc2c1C(O)c1ncc(-c2cccc(C(F)(F)F)c2)[nH]1 (stereo unspecified)	2922
COc1ccc(Nc2c(C3CC3)nc3nc(C)cc(C)n23)cc1	3821
CC(Cc1ccc(O)cc1)NCC(O)c1ccc(O)c(O)c1 (stereo unspecified)	3814
O=C(NCc1ccc(F)cc1F)[C@@H]1CCCN1C(=O)[C@@H]1CCCN1C(=O)c1ccc(Cl)cc1	4235
C[C@@H]1CCCCO[C@H](CN(C)C(=O)C2CCCCC2)[C@@H](C)CN([C@H](C)CO)C(=O)c2cc(N(C)C)ccc2O1	3578
Cc1nc2ccccn2c(=O)c1NC(=O)c1ccc2c(c1)OCO2	2952
CCC(CC)C(=O)N(C)c1c(C)nc2c(OCc3ccc(OC(F)F)cc3)cccn12	3131
CCOCCCn1c(SCC(=O)NC2CCCCC2)nc2ccccc2c1=O	3563
COc1ccc([C@H]2C[C@H](O)[C@@H](n3cc(-c4ccc(F)cc4)nn3)CN2Cc2cccs2)cc1	3529
CC1(C(=O)NS(=O)(=O)c2ccccc2Cl)CCN1C(=O)CC1CC1 (stereo unspecified)	3931
Nc1ncnc2c1ncn2[C@@H]1O[C@H](C(=O)NS(=O)(=O)c2cccs2)[C@@H](O)[C@H]1O	4369
CC(C)C(=O)N1CCC1(C)C(=O)Nc1ccc(-n2cncn2)cc1 (stereo unspecified)	3480
C[C@@H]1CN([C@@H](C)CO)C(=O)CCCn2nncc2CO[C@@H]1CN(C)C(=O)Oc1ccc2ccccc2c1	3817
O=C(NCc1ccccn1)[C@@H]1CCCN1C(=O)[C@@H]1CCCN1C(=O)c1cccc(Cl)c1	5635
COc1cccc(-c2cccc(-c3nc(C(=O)NCc4ccc(Oc5ccccc5)cc4)cc4c3[C@H](CCO)N(S(=O)C(C)(C)C)C4)c2)c1 (stereo partly specified)	4616
COc1ccccc1CNC(=O)c1ccc2nc(C)c(N(C)Cc3ccc(NC(C)=O)cc3)n2c1	2955
CCNC(=O)C1(C)CCCN(C(=O)c2c(C)noc2C)C1 (stereo unspecified)	2990
CCOCCC(=O)Nc1ccc2c(c1)c(=O)n(C)n2CC=C(C)C	3008
CC1(C(=O)NS(=O)(=O)c2ccc(Cl)cc2)CCN1C(=O)CCc1ccc(Cl)cc1Cl (stereo unspecified)	3745
COc1ccc(CN2C(=O)C(CC(=O)NCC3CCCCC3)CC(C(=O)N(C(C)C)C(C)C)=C2C)cc1 (stereo unspecified)	2850
c1cc2c(cc1N1CCCCC1)CNCc1cnnn1-2	5509
Cc1cc(C)n2c(Nc3ccc4c(c3)OCCO4)c(-c3ccc(F)cc3)nc2n1	4399
COc1ccc(NC(=O)CSc2nnnn2C2CCCC2)cc1S(=O)(=O)N1CCOCC1	3809
CCn1c(C)cc(C(=O)CSc2nnc(C3CC3)n2C2CC2)c1C	3998
COc1ccc(C(C)(O)c2nc(-c3ccccc3)cs2)cc1 (stereo unspecified)	3982
CCOC(=O)C1=CC[C@@H](c2ccc(OC)cc2)N(S(=O)(=O)c2ccc(C)cc2)[C@H]1CC	4518
COc1cccc(NC(=O)N2CCc3nc(NCc4cccc(Oc5ccccc5)c4)ncc3C2)c1	4554

Following part
mol	Bead autofluor
CCc1nc2ccc(C(=O)N3CCN(S(=O)(=O)CC)CC3)cn2c1N(C=O)Cc1ccc(OC)cc1	3740
Cc1ccc(S(=O)(=O)N(C)C[C@H]2Oc3cc(C#Cc4ccccc4)ccc3S(=O)(=O)N([C@H](C)CO)C[C@@H]2C)cc1	2992
CCCS(=O)(=O)NC(=O)C1(C)CCN(C(=O)c2cc(-c3cccs3)oc2C)C1 (stereo unspecified)	2882
COc1cccc(C(O)c2ncc(-c3ccccc3OC)[nH]2)c1 (stereo unspecified)	2905
CCOC(=O)C(C#N)C(=N)C1C(=O)OC2CCCCC21 (stereo unspecified)	3407
COCCCNC(=O)c1ccc2sc([C@@H]3O[C@H](CO)[C@H](O)[C@H](O)[C@H]3O)nc2c1	2890
CC(=O)c1ccc(-c2cnc3c(NC=O)cc(-c4ccccc4Oc4ccccc4)cn23)cc1	3880
CN(C)C(=O)c1cccc(-c2cnc3c(NC=O)cc(-c4ccc(N(C)C)cc4)cn23)c1	4045
O=[N+]([O-])c1ccc2c(c1)C(N1CCN(CCO)CC1)Cc1ccc(F)cc1S2 (stereo unspecified)	5533
Cc1nc2ccccn2c(=O)c1NC(=O)COc1ccccc1	3691
Nc1ccn([C@@H]2O[C@H](C(=O)NCCc3ccc(F)cc3)[C@@H](O)[C@H]2O)c(=O)n1	5754
O=C1CCCCc2cc(O)c(O)cc21	3483
COC(=O)[C@]12CCCCC=C1N(Cc1cccc3ccccc13)C(=O)[C@H](CC(=O)NCC1CCCCC1)C2	6123
COc1ccc([C@H]2C[C@H](O)[C@@H](n3cc(-c4ccc(F)cc4)nn3)CN2CC2CCCCC2)cc1	3507
C[C@@H](CO)NC(=O)[C@H]1O[C@@H](n2ccc(=O)[nH]c2=O)[C@H](O)[C@@H]1O	5401
CCCCNC(=O)C1(C)CCCCN1C(=O)c1ccc2sccc2c1 (stereo unspecified)	3912
Nc1ccn([C@@H]2O[C@H](CNC(=O)[C@@H](Cc3cccnc3)NC=O)[C@@H](O)[C@H]2O)c(=O)n1	3883
CCOC(=O)[C@]12Cc3cc(C)ccc3[C@H]1N(Cc1ccccc1)C(=O)c1cc(OC)ccc12	5953
COc1ccc(C2CC(c3cccc([N+](=O)[O-])c3)=NN2/C(C)=C/C(C)=O)cc1 (stereo unspecified)	54573*
O=C1CC(=Nc2ccc([N+](=O)[O-])cc2)NN1c1c(Cl)cc(Cl)cc1Cl	3474
c1ccc(CCNc2cc(-c3ccc4ccccc4c3)nc3ccnn23)nc1	2911
CC(C)(C)C1CCN2CCC[C@](c3ccccc3)(C1)C2OCCCO (stereo partly specified)	6150
Cn1nccc1-c1coc2c(C(=O)NCc3ccccc3)cccc12	3536
COc1ccc(NC(=O)c2cc(C3CCCCN3S(=O)(=O)c3ccccc3)on2)c(C)c1 (stereo unspecified)	3559
CC1=C(C(=O)N(C(C)C)C(C)C)CC(CC(=O)NC2CCCCC2)C(=O)N1CCC1=CCCCC1 (stereo unspecified)	5796
O[C@H]1C[C@H](c2ccccc2)N(CC2CCCCC2)C[C@@H]1n1cc(C2CC2)nn1	3513
O=C1CCC(C(=O)N2CCN(c3cnccn3)CC2)CN1CCc1ccccc1 (stereo unspecified)	3725
COc1ccc(NC(=O)N(C)C[C@H]2Oc3ncc(C#C[C@@H](C)O)cc3C(=O)N([C@H](C)CO)C[C@H]2C)cc1	3888
Cc1cc(C)n2c(Nc3ccc4c(c3)OCCO4)c(-c3ccccn3)nc2n1	5551
Cc1cc2nc(-c3ccccc3)c(CC(C)(C)C)n2c(C)c1Br	5623

The closing 7 entries of the part before lead into the next:
mol	Bead autofluor
COc1ccc(NC(=O)c2cc(C3CCCCN3S(=O)(=O)c3ccccc3)on2)c(C)c1 (stereo unspecified)	3559
CC1=C(C(=O)N(C(C)C)C(C)C)CC(CC(=O)NC2CCCCC2)C(=O)N1CCC1=CCCCC1 (stereo unspecified)	5796
O[C@H]1C[C@H](c2ccccc2)N(CC2CCCCC2)C[C@@H]1n1cc(C2CC2)nn1	3513
O=C1CCC(C(=O)N2CCN(c3cnccn3)CC2)CN1CCc1ccccc1 (stereo unspecified)	3725
COc1ccc(NC(=O)N(C)C[C@H]2Oc3ncc(C#C[C@@H](C)O)cc3C(=O)N([C@H](C)CO)C[C@H]2C)cc1	3888
Cc1cc(C)n2c(Nc3ccc4c(c3)OCCO4)c(-c3ccccn3)nc2n1	5551
Cc1cc2nc(-c3ccccc3)c(CC(C)(C)C)n2c(C)c1Br	5623
C[C@H](c1ccccc1)N1C[C@H](COCc2ccccc2)Oc2cc(N3CCC[C@H]3CO)ccc2S1(=O)=O	9127
COc1ccc(C(CNC(=O)c2ccc(OCc3cscn3)cc2)N2CCCC2)cc1 (stereo unspecified)	4984
Cc1ccc(Cc2c(-c3ccc(C)cc3)nc3c(C)cc(Br)cn23)cc1	6538
COc1ccc(CCNC2=CC(=O)CCC2)cc1OC	6221
COc1ccccc1CCC(=O)Nc1ccc2c(c1)c(=O)n(C)n2Cc1ccc(F)cc1	3830
OC(c1ccc(Cl)c(Cl)c1)c1ncc(-c2cccc(F)c2)[nH]1 (stereo unspecified)	3927
COc1cnc(-c2cccc(C(F)(F)F)c2)c(NC(=O)c2cc3ccccc3s2)n1	3902
COc1ccc(NC(=O)c2cccc3c(-c4ccc(O)c(OC)c4)coc23)cc1	3901
COc1ccc(C(=O)OCC(=O)NC23CC4CC(CC(C4)C2)C3)c(O)c1	3819
O=C1NC[C@H](CCCCN2C[C@H](Cc3ccccc3)N(Cc3ccccc3)C(=O)C2=O)N(CCc2ccc(O)cc2)C1=O	4054
C[C@H](O)[C@@H]1C(=O)N2CCc3ccc(N4CCN(C)CC4)cc3[C@@H]2C[C@@H]1N(C)C(=O)c1cccnc1	2937
COc1cccc(C(NC(C)=O)c2nc(-c3ccc(C)c(C)c3)cs2)c1 (stereo unspecified)	3106
Cc1nnc(N2C(=O)C(=O)/C(=C(/O)c3ccc4c(c3)OCCO4)C2c2cccc([N+](=O)[O-])c2)s1 (stereo unspecified)	3054
COc1ccccc1NS(=O)(=O)c1cccc(NS(=O)(=O)c2cc(C(=O)O)ccc2Cl)c1	3854
Cn1c(Cc2ccccc2)nc(=O)c2ccccc21	5373
O=S1(=O)CC(N2CCN(CCO)CC2)CN1Cc1cn(Cc2ccccc2)nn1 (stereo unspecified)	5758
O=C(Nc1ccc(F)c(Cl)c1)c1cc(C2CCCN(S(=O)(=O)c3ccccc3)C2)on1 (stereo unspecified)	4105
OCC1OC(n2cnc3c(SCc4ccccc4)nc(NO)nc32)C(O)C1O (stereo unspecified)	3894
COc1ccccc1NC(=O)Nc1nnc([C@@H]2C[C@H](O)[C@@H](CO)O2)s1	2986
COc1ccc([C@H]2C[C@H](O)[C@@H](n3cc(-c4ccc(F)cc4)nn3)CN2C(=O)C2CCCCC2)cc1	3581
COc1ccc(/C=C/CN2CCC(C(=O)NC(c3ccc(F)cc3)c3ccc4ccccc4n3)CC2)cc1 (stereo unspecified)	4830
CCNC(=O)C1CCCN(C(=O)Cc2cccs2)CC1 (stereo unspecified)	2981
CN(CCc1ccccc1)C(c1cc2ccccc2o1)c1nnnn1C(C)(C)C (stereo unspecified)	6181
O=C(NCc1ccccc1)C1c2ccccc2OCC(=O)N1Cc1ccc2c(c1)OCO2 (stereo unspecified)	5799
Cc1cn([C@H]2C[C@H](O)[C@@H](CNC(=O)[C@H](N)Cc3cccnc3)O2)c(=O)[nH]c1=O	3846
CN(Cc1ccccc1)C(=O)CCC1CCN(C(=O)c2ccco2)CC1	3903
Cc1cc(N2C(=O)C(O)=C(C(=O)c3ccc(C)o3)C2c2cccc(Cl)c2)no1 (stereo unspecified)	2832
Cn1nc(C(=O)NCC(=O)Nc2ccc(F)c(F)c2)ccc1=O	2751
C[C@@H]1CN([C@@H](C)CO)C(=O)CCCn2cc(nn2)CO[C@H]1CN(C)S(=O)(=O)c1ccccc1	3376
COC(=O)c1ccc2nc(-c3cccc(Br)c3)c(Cc3ccsc3)n2c1	5808

Looked up above:
Reading for C[C@H](c1ccccc1)N1C[C@H](COCc2ccccc2)Oc2cc(N3CCC[C@H]3CO)ccc2S1(=O)=O under Bead autofluor: 9127
Reading for COc1ccccc1CCC(=O)Nc1ccc2c(c1)c(=O)n(C)n2Cc1ccc(F)cc1 under Bead autofluor: 3830
Reading for O=C(NCc1ccccc1)C1c2ccccc2OCC(=O)N1Cc1ccc2c(c1)OCO2 (stereo unspecified) under Bead autofluor: 5799
Reading for Cc1cn([C@H]2C[C@H](O)[C@@H](CNC(=O)[C@H](N)Cc3cccnc3)O2)c(=O)[nH]c1=O under Bead autofluor: 3846
Reading for COc1cnc(-c2cccc(C(F)(F)F)c2)c(NC(=O)c2cc3ccccc3s2)n1 under Bead autofluor: 3902
Reading for Cc1nnc(N2C(=O)C(=O)/C(=C(/O)c3ccc4c(c3)OCCO4)C2c2cccc([N+](=O)[O-])c2)s1 (stereo unspecified) under Bead autofluor: 3054

(list continues)
mol	Bead autofluor
CC1(Cc2ccc(Cl)c(Cl)c2)C(=O)Nc2ccc(S(=O)(=O)NC3CCCCC3)cc21 (stereo unspecified)	3871
CC(=O)Nc1cc(-c2ccc(N3CCN(C)CC3)cc2)cn2c(-c3ccccc3)cnc12	3832
O=C1NC[C@H](CCCCN2C[C@H](Cc3ccccc3)N(CCC3CCCCC3)C(=O)C2=O)N(Cc2ccccc2)C1=O	6094
CC1=C(C(=O)N(C)C)CC(CC(=O)NCc2ccco2)C(=O)N1Cc1ccccc1 (stereo unspecified)	3093
C[C@@H]1CC[C@H](Cc2ccc(-n3cccc3)cc2)N1C(=O)OC(C)(C)C	3603
Cc1ccc(S(=O)(=O)N2C[C@]3(O)C[C@@H]4C(=O)N(c5ccccc5)C(=O)[C@@H]4C[C@]3(OC(=O)NCc3ccccc3)C2)cc1	3612
COCCN1C(=O)CCC1(C)C(=O)Nc1ccc2c(c1)OCCO2 (stereo unspecified)	4233
Cn1nc(C(C)(C)C)cc1C(=O)N1CCCCC1c1cc(C(=O)Nc2ccc3c(c2)OCO3)no1 (stereo unspecified)	3891
COc1ccc(-c2csc(NC(=O)CCNC(=O)c3ccco3)n2)cc1	3699
COCCCN1C(=O)C(CC(=O)NC(c2ccccc2)c2ccccc2)CC(C(=O)N2CCOCC2)=C1C (stereo unspecified)	3849
COc1ccc(CCNC(=O)Nc2nnc([C@H]3C[C@H](O)[C@@H](CO)O3)s2)cc1OC	3529
O=C(Nc1ccccc1Cl)c1cc(C2CCCCN2C(=O)CCCc2ccccc2)on1 (stereo unspecified)	3315
CCCCN1C(=O)C(=O)NC[C@H]1Cc1cccc2ccccc12	4732
CC1(c2nnnn2-c2ccc3c(c2)OCCO3)CCC(=O)N1C1CC1 (stereo unspecified)	6344
COc1ccc(-c2nc3ccc(Cl)cn3c2Cc2cccc(Cl)c2)cc1OC	7261
